Six1-Eya2 inh – inhibitors of human Six1/Eya2 interaction; Q15475+O00167; AlphaScreen GST-Six1/His-Eya2 binding, biochemical; hits give low values; control for the full effect not named in the record; activity change, % (concentration not given with the values); 360,000 compounds, 0.56% hits; in the data active = activity change below about -65%; inconclusive = about -30% to -65%; inactive = above about -30%; note: % is set by controls: 0 for no effect and ±100 for the full control effect
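Six1/Eya2 binding was read as AlphaScreen signal after compounds were pinned into GST-Six1 plus His-tagged Eya2 (5X stock 250/500 nM) in pH 8.0 Tris/NaCl/TCEP buffer, beads added, then incubated 1 h, 37 C, dark.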
TRPML1 blocker – blocks the human TRPML1 channel | activity change, negative = inhibition, % (no concentration beside the values) | 390,000 compounds, 0.02% hits | Q9GZU1 | TRPML1-inducible cells, Ca2+ dye fluorescence, FDSS; hits give low values; inhibition of EC80 agonist-evoked calcium signal; in the data active means activity change below about -50%; inconclusive means about -30% to -50%; inactive means above about -30%;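 note: stimulus is agonist 54-4 at its EC80 concentration; % is set by controls: 0 for no effect and ±100 for the full control effect; compound concentration not given in the record; the text of the record puts the active cut at -80%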
Target sequence (Q9GZU1 whole entry, looked up): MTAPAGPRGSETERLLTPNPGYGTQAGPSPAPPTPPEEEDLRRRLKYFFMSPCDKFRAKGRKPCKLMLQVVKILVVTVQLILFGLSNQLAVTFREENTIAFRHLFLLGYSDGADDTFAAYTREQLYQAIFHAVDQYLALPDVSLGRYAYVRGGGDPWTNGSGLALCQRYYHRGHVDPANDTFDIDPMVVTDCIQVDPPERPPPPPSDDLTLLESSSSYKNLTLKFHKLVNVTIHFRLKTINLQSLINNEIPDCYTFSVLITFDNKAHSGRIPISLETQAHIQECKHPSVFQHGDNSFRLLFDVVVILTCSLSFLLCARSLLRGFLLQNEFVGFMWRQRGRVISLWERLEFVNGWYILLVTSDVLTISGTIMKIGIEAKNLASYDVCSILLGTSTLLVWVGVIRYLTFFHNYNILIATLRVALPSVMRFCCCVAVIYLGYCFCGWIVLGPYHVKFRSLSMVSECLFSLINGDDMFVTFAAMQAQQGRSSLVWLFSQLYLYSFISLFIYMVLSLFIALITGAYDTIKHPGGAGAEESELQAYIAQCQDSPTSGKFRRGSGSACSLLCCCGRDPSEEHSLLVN
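Tet-induced TRPML1-DL cells loaded with Ca8 no-wash calcium dye were read kinetically on FDSS. Compound addition was followed by EC80 agonist 54-4 (4 uM final); inhibition was read over 110 s.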
D2 agonist – activates the human D2 dopamine receptor; P14416; DiscoveRx PathHunter D2 beta-arrestin, luminescence, 90 min; 100% = 57 uM dopamine signal; activation, % (test concentration not listed); 360,000 compounds, 0.084% hits; in the data active = activation above about 40%; inconclusive = about 15% to 40%; inactive = below about 15%; note: compound concentration not given in the record; the text of the record calls up to 30% inactive
Target sequence (P14416 whole entry, looked up): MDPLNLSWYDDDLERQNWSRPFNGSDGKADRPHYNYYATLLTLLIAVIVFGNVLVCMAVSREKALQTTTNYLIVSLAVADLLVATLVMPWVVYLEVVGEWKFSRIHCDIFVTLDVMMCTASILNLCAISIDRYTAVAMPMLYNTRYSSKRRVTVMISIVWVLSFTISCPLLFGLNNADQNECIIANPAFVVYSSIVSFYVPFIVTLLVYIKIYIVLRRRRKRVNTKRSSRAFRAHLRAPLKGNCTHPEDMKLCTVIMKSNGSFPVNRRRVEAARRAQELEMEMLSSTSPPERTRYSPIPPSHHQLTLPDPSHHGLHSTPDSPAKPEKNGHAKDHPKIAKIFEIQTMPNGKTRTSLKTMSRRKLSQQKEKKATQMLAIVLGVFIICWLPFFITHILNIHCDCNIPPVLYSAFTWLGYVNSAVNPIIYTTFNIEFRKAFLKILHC
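Agonist mode: compounds alone added to overnight-plated D2 PathHunter cells for 90 min at 37 C, with 57 uM final dopamine (EC100) defining full response. Beta-arrestin recruitment detected by chemiluminescent reagent, read after 1 h at ambient temperature.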
PINK1 expr mod – PINK1 expression modulation; 410,000 compounds, 0.2% hits; PINK1 immunofluorescence, high-content cytometry, 24 h; AID 624263; Potency, µM (series often up to 76.6 µM), for inactives: top-dose activation (PINK1 increase), usual class: activators; active = well fitted activation curve with a large enough effect; inconclusive = small, poorly fitted or top-dose-only effect; inactive = flat fitted curve, though single readings scatter; cell line not stated here;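 note: potency is the fitted concentration of half-maximal effect; % of control where 0% means no effect; nearly all actives have a fitted effect of over 65% in size; a mitochondrial uncoupler was the plate control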
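Readout is PINK1 immunofluorescence, quantified alongside mitochondrial, cell and nuclear markers by laser-scanning microplate cytometry. Cells from a stable line were exposed to compound titrations (5 concentrations) for 24 hours, with CCCP controls.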
CtBP-E1A inh – CtBP/E1A binding inhibition | AlphaScreen GST-E1A/His-CtBP binding, 1536-well; hits give low values; control for the full effect not named in the record | activity change, % (no concentration beside the values) | 340,000 compounds, 0.49% hits | AID 651724; in the data active means activity change below about -65%; inconclusive means about -30% to -65%; inactive means above about -30%; note: % is set by controls: 0 for no effect and ±100 for the full control effect
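Homogeneous bead-based format: GST-tagged E1A captured on glutathione donor beads, His-tagged CtBP on nickel acceptor beads; compounds precede bead addition by 2 h at 37 °C.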
TRPML1 agonist – human mucolipin-1 channel agonism | TRPML1-expressing cells, Ca2+ dye fluorescence, FDSS; host cell line not named in the record; reference of the full effect not given here | activation, % (concentration not given with the values) | 410,000 compounds, 0.12% hits; in the data active = activation above about 50%; inconclusive = about 30% to 50%; inactive = below about 30%; note: 0% is about no effect; the text of the record puts the active cut at 80%
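Tet-induced TRPML1-DL cells, 1,500 per well, cultured overnight, were loaded with a no-wash Ca2+ dye for 45–90 min. Calcium fluorescence was recorded on the FDSS for 110 s after compound addition, before the EC80 agonist (4 uM 54-4) was added.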
An asterisk follows results filed as active; ? = inconclusive; · = not tested or not shown; & = joins results of further samples; [ ] = another dose, or the depositor's remark.

compound	Six1-Eya2 inh	TRPML1 blocker	D2 agonist	PINK1 expr mod	CtBP-E1A inh	TRPML1 agonist
O=C(O)c1ccc2c(c1)C(=O)N(c1ccc(/C=C/C(=O)c3ccccc3)cc1)C2=O	-21.3	3.5	-2.3	4.2%	-9.8	1.7
COc1ccc(C(C)(NC(C)=O)c2nc(-c3cncnc3)cs2)cc1 (centres undefined)	-1.3	1.3	-3.4	1.8%	5.7	0.1
CCOc1ccc(NC(=O)CCN2CCN(S(=O)(=O)c3ccc(Cl)cc3)CC2)cc1	4.3	1.7	-0.7	·	-1.2	0.1
O=C(CNc1ccc2ccccc2c1)N/N=C/c1cc2ccccc2nc1Cl	-16.4	-1.4	1.4	4.8%	-16.6	2.0
COc1ccccc1-n1cc(C(=O)NCC(=O)N2CCN(c3ccccc3)CC2)c2ccccc2c1=O	1.0	-12.6	-0.5	3.4%[38.3 µM]	5.3	-0.6
CCOC(=O)C1CCCN(C(=O)c2ccc(C)cc2O)C1 (centres undefined)	1.4	-14.2	-1.9	-2.2%[38.3 µM]	-2.0	0.0
Cn1cccc1C1C=C(c2ccc(C(C)(C)C)cc2)Nc2ncnn21 (centres undefined)	-5.3	-14.9	0.0	2.3%	-14.4	-0.5
Cc1ccc(S(=O)(=O)N2CCN(C(=O)C3COc4ccccc4O3)CC2)cc1C (centres undefined)	-6.7	-7.3	0.9	-4.4%[38.3 µM]	-19.9	2.9
Cc1c(N=NC2=C(O)CC(C)(C)CC2=O)cc2c(c1[N+](=O)[O-])C(C)(C)CC2(C)C	-2.5	3.4	1.4	-0.5%	3.1	1.1
O=C(c1cccc([N+](=O)[O-])c1)N1CCN(c2ccc(Cl)cc2)CC1	-17.5	-5.9	3.0	1.3%	-13.8	-1.0
O=c1c(Cc2ccc(F)cc2)c(O)ccn1Cc1ccc(Cl)cc1Cl	2.5	-8.1	-1.5	15.9%	11.3	0.7
CC(=O)NC(Cc1c[nH]c2ccccc12)C(=O)NCc1ccco1 (centres undefined)	1.8	-3.9	-3.1	-1.3%	2.6	-0.1
O=C(NCc1cccc(Cl)c1)NCc1noc2ccccc12	·	-0.5	·	-0.8%	·	2.0
COc1cc(C(=O)Nc2ccccc2C2COC(=O)C2=N)cc(OC)c1OC (centres undefined)	0.1	4.5	-1.6	-0.1%	0.4	0.0
Cc1ccc(/C=C2/SC(=S)N(C3CCCCC3)C2=O)o1	-11.6	42.3	-4.6	11.5%	-1.9	-0.4
C=CCN(c1ccc(Br)cc1C(=O)OC)S(C)(=O)=O	12.5	7.7	-1.0	0.1%	8.9	0.5&-0.4
O=C(COc1ccc(Cl)cc1)NCc1nnc(SCC(=O)Nc2ccccc2F)o1	1.7	-23.3	-5.7	1.0%	1.0	0.5
COc1cccc(NC(=O)N(Cc2cn(C)c3ccccc23)C2CCCCCC2)c1	·	16.1	·	-1.7%	·	0.9
O=C(/C=C/c1ccco1)NCC1COc2ccccc2O1 (centres undefined)	-9.9	4.2	-2.3	5.0%	-2.9	0.5
CCOC(=O)CN1C(=O)/C(=C/c2ccccc2Br)Oc2ccccc21	9.7	-6.5	-4.7	4.6%	-8.0	2.0
CSc1ccccc1NC(=O)CN(c1ccccc1Br)S(C)(=O)=O	-4.8	-17.4	-3.9	2.8%	-15.6	-1.0
COc1ccc(NC(=O)CC2SC(=O)NC2=O)cc1 (centres undefined)	-2.5	22.8	-8.1	3.1%	3.4	-0.5
Cc1ccccc1NC(=O)c1cccc(N2C(=O)C3C4CC(C(Br)C4Br)C3C2=O)c1 (centres undefined)	3.2	-0.2	5.1	-0.3%	3.6	1.0
Cc1ccc(OCC(=O)N2CCN(c3nnc(-c4ccc(C)cc4)c4ccccc34)CC2)cc1	-16.9	5.8	-0.3	-0.7%[38.3 µM]	-16.5	1.4
OCC1(CCc2ccccc2)CCCN(CCCC(F)(F)F)C1 (centres undefined)	8.9	-0.8	-1.9	3.8%	-14.0	-0.4
Cc1cc(OCc2cc(C(=O)N(C)CCc3cnn(C)c3)no2)cc(C)c1Cl	-0.2	1.8	8.1	0.3%	1.6	1.7
COC(=O)CCN(C1CCCCC1)S(=O)(=O)c1ccc(S(=O)(=O)NC2CCCCC2)cc1	-1.2	26.5	-2.0	·	1.8	1.2
Cc1cccc(Cn2cc(/C=C/[N+](=O)[O-])c3ccccc32)c1	19.1	9.5	-4.1	-4.3%	0.0	2.8
CCN=C1NN=C(c2cc(C)n(Cc3ccco3)c2C)CS1	-11.1	-6.8	-3.3	5.4%	-6.6	0.5
COC(=O)c1ccc(COC(=O)CCS(=O)(=O)c2ccc(C)cc2)cc1	7.8	8.3	-2.0	7.0%	2.4	1.3

Five compounds already listed, ordered by length of the SMILES, lowest first:
compound	Six1-Eya2 inh	TRPML1 blocker	D2 agonist	PINK1 expr mod	CtBP-E1A inh	TRPML1 agonist
COc1ccc(NC(=O)CC2SC(=O)NC2=O)cc1 (centres undefined)	-2.5	22.8	-8.1	3.1%	3.4	-0.5
CCOC(=O)C1CCCN(C(=O)c2ccc(C)cc2O)C1 (centres undefined)	1.4	-14.2	-1.9	-2.2%[38.3 µM]	-2.0	0.0
Cc1ccc(/C=C2/SC(=S)N(C3CCCCC3)C2=O)o1	-11.6	42.3	-4.6	11.5%	-1.9	-0.4
Cc1ccc(S(=O)(=O)N2CCN(C(=O)C3COc4ccccc4O3)CC2)cc1C (centres undefined)	-6.7	-7.3	0.9	-4.4%[38.3 µM]	-19.9	2.9
Cc1ccc(OCC(=O)N2CCN(c3nnc(-c4ccc(C)cc4)c4ccccc34)CC2)cc1	-16.9	5.8	-0.3	-0.7%[38.3 µM]	-16.5	1.4

(more compounds)
compound	Six1-Eya2 inh	TRPML1 blocker	D2 agonist	PINK1 expr mod	CtBP-E1A inh	TRPML1 agonist
COc1ccc(/C=C2\SC(=S)N(CCC(=O)Nc3cccc(O)c3)C2=O)cc1	2.9	·	6.5	0.1%	·	·
CCOC(=O)C1=C(CN2CCc3ccccc32)NC(=O)NC1c1cccc([N+](=O)[O-])c1 (centres undefined)	?	-0.7	-0.6	-0.9%[38.3 µM]	?	0.5
CC1=Nn2c(nnc2-c2ccccc2Cl)SC1	-1.5	1.6	-0.8	-1.0%	3.7	-0.3
Cc1ccc(C(=O)NCC(=O)NCC(=O)OCC(=O)c2ccc(F)cc2)cc1	-6.1	2.3	-0.2	-0.8%	7.4	-0.5
O=C(CCCC(=O)c1ccccc1)NCCc1ccccc1F	7.0	0.7	9.2	-1.6%	14.7	3.2
Cc1onc(-c2ccccc2)c1CNC(=O)C1COc2ccccc2O1 (centres undefined)	2.2	32.1	-3.9	0.6%	4.6	1.1
CC(=O)N(c1cccc(Br)c1)c1nc(C)cc(C)c1C#N	5.8	-1.3	-2.5	-2.3%	3.4	0.2
CCOc1ccc(CNC(=O)CCn2c(=O)oc3ccccc32)cc1	1.7	-3.9	-3.2	3.1%[38.3 µM]	-0.9	-0.3
CN1CCN(C(=O)c2ccc3c(c2)NC(=O)C(C)(C)O3)CC1	3.9	-1.8	-1.6	-1.0%	4.6	0.0
Cc1ccccc1C(=O)NC(=O)Nc1ccc(-n2nc(C(F)(F)F)cc2C(F)(F)F)cc1	·	-9.6	·	-4.6%	·	0.1
CC(C)CNC(=O)COC(=O)c1ccccc1SCC(=O)NCC(C)C	5.3	-0.3	4.2	0.6%	7.2	-1.2
Cn1c(Oc2cccc(Cl)c2)nc2c1c(=O)n(Cc1ccccc1Cl)c(=O)n2C	·	-2.1	·	0.1%	·	0.0
Nc1ccc(S(=O)(=O)c2ccc(N)nc2)cc1	7.7	9.7	0.4	1.3%	1.0	-0.4
Cc1nc2c3cnn(-c4ccc(C)c(C)c4)c3ncn2n1	-24.6	15.3	-3.1	-1.5%	-2.1	0.0
O=C(NCCc1c[nH]c2ccccc12)C1CCN(c2nnc(N3CCCC3=O)s2)CC1	-1.4	-7.6	-3.2	3.1%	11.6	2.4
C=CCN=c1scc(-c2ccco2)n1/N=C/c1ccc(O)c(O)c1O	-66.5*	-18.0	90.0*	3.9%	-77.8*	1.1
COC(=O)c1ccc2c(=O)n(NC(C)=O)c(=S)[nH]c2c1	-1.3	-3.7	-1.5	?	4.1	0.2
CCCN(CC1CC1)C(=O)COC(=O)c1oc2ccc(OCC)cc2c1C	26.1	-10.9	-3.9	30.0%	·	1.7
CCOC(=O)C1CCCN(Cc2nc(Cc3ccccc3Cl)no2)C1 (centres undefined)	6.8	28.8	-2.2	0.7%	·	-1.0
CCOC(=O)c1c(NC(=O)CSc2nnc3c(n2)[nH]c2ccc(F)cc23)sc(C(C)=O)c1C	-2.0	15.2	-0.5	3.2%	-1.7	0.0
Cc1ccc(C)c(NC(=O)Cn2c(=O)nc(-c3ccccc3)c3ccccc32)c1	·	3.9	·	-0.2%	·	1.5
CC(C)C(NS(=O)(=O)c1ccccc1F)C(=O)OCC(=O)NCc1ccco1 (centres undefined)	2.9	2.8	-1.3	-0.6%	-2.6	-0.2
Cc1ccc(OCCn2c(C)nc3ccccc32)cc1	-1.2	3.0	1.7	6.3%	4.2	0.2
CN(C)c1ncc(S(=O)(=O)c2ccccc2)c(-c2ccccc2Cl)n1	-0.9	14.4	-4.5	7.7%[38.3 µM]	0.0	0.3
Cc1ccc(NC(=O)c2cc(Cl)ccc2[N+](=O)[O-])cc1C	-14.3	-23.7	1.0	10.0%	-8.4	2.5
O=C(CSc1nnnn1-c1ccc2c(c1)OCO2)NCc1ccccc1	21.8	-11.3	-3.1	6.9%[38.3 µM]	39.5	2.4
O=C(C1CCCO1)N1CCN(S(=O)(=O)c2ccccc2)CC1 (centres undefined)	0.7	-17.9	-1.8	6.7%[38.3 µM]	56.3	0.1
Cc1ccc2c(CC(=O)OCC(=O)N(CC(C)C)c3c(N)n(Cc4ccccc4)c(=O)[nH]c3=O)coc2c1	5.7	-13.8	-5.6	?	2.7	0.5
CC(C)(C)OC(=O)N[C@@H](Cc1ccccc1)C(=O)NCC1CCC(C(=O)N[C@@H](CC(=O)O)C(=O)O)CC1 (some centres undefined)	-4.6	-4.7	8.3	-1.6%	-8.8	0.6
CN(CCCNC(=O)c1ccccc1F)CCCNC(=O)c1ccccc1F	3.8	·	4.5	-0.8%	·	·
Cc1cc(C)c(OCC(O)CNC(C)(C)C)c(C)c1 (centres undefined)	-5.7	7.2	-4.2	-0.7%	-8.9	1.8
Cc1ccc(Cn2ccnc2SCC(=O)Nc2nc3ccccc3s2)cc1	·	73.2	·	-18.9%	·	6.2
COc1cccc(CNCc2ccccn2)c1OC	?	-1.1	0.4	0.9%[38.3 µM]	7.0	0.3
COc1ccccc1OCC(=O)NNc1c2ccccc2nc2ccccc12	-2.9	-15.1	2.4	-0.8%	·	0.9
Cc1c(OC(C)C(=O)NC(Cc2c[nH]c3ccc(O)cc23)C(=O)O)ccc2c1oc(=O)c1ccccc12 (centres undefined)	?	·	-3.4	-0.7%	?	·
